Screening data: PubChem, several laboratories
A1 inh: inhibitors of the anti-apoptotic protein A1, read as caspase activation; caspase activation, % (concentration not given with the values); AID 2462; MEF A1-2A-BIM cells, Caspase-Glo 3/7 luminescence, 3 h; percent of clofoctol response, vehicle zero; 0.066% of 330,000 active;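 active means over half of replicate activation scores above 10%, or exactly half above 10 with the replicate mean above 10; inconclusive means replicate mean below 10 yet half the replicates above 10; inactive means over half of replicates below 10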;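 further: wells of about 30 µL received 50 nL stock; many hits fall short of the cut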
LANA-H2A inh: blocks KSHV LANA binding to histone H2A/H2B; Q9QR71; cell-free LANA-H2A/H2B peptide, fluorescence polarization; inhibition, % (test concentration not listed); 0.6% of 320,000 active; AID 2629; in the data active means inhibition mostly above about 10%, no sharp cut-off; inactive means mostly below about 6.7%;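 further: stock transfer was 7.5 nL into about 10 µL; 0% = median of vehicle wells and 100% = median of positive control wells; one replicate is shown; the record names a cut of 25% in any replicate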
Vif TR-FRET: HIV-1 Vif–A3G interaction blockers – biochemical, TR-FRET, GST-Vif 1-94, biotin-A3G peptide, dose response retest, primary screen (AID 1117319) | TR-FRET GST-Vif / biotin-A3G peptide binding; higher % means a stronger effect; test concentration not given here; strong numbers were not always called active | inhibition, %; hits with a dose series show IC50 in µM | 0.57% of 260,000 active;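 active means above the screen mean plus three standard deviations and confirmed in dose response; inconclusive means results disagree or hit not tested in dose response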;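 further: Vif residues 1-94 fused to GST binding biotinylated APOBEC3G peptide 110-148; 0% = full assay without inhibitor and 100% = GST in place of GST-Vif; retest series ran down from 100 µM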
E coli growth: E. coli growth inhibition; 0.21% of 330,000 active; Escherichia coli growth, OD600, 23 h; hits give low values; OD600 absorbance (no concentration beside the values); AID 1053175;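 active means OD600 absorbance below the run mean of sample wells minus 3.6 SD, in any replicate, cut at about 0.56 in these data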;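 further: stock transfer was 300 nL into about 60 µL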
HNF4A DNA FP: change in binding of human HNF4 alpha to DNA | P41235 | HNF4a-FITC DNA binding, fluorescence polarization, 1 h | activity change, % at 10 µM | 0.3% of 360,000 active | AID 1224865; in the data active means activity change above about 30%, passing the limit was not always enough;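 further: controls were the assay level and a saturating level of protein; the project sought stronger binding though the title names inhibitors; some compounds called inactive have numbers as strong as hits; positive values seem to mean higher polarization but the record does not say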
Target sequence (P41235 whole entry, looked up): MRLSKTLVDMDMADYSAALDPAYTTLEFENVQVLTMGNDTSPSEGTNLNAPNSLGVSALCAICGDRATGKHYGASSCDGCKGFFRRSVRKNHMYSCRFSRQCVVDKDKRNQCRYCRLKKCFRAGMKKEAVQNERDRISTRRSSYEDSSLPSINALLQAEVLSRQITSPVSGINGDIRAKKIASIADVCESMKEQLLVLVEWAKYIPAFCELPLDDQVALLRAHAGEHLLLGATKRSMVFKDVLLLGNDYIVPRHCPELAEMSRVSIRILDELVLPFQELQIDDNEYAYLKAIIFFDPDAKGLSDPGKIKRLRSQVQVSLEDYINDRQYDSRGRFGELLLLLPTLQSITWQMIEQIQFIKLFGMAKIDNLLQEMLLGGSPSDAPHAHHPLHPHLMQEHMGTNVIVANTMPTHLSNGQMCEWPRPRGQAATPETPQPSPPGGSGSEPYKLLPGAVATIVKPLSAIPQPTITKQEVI
Beta2AR agonist: human beta-2 adrenergic receptor agonism by FAP; P07550; Am2.2-beta2AR cells, FAP receptor internalization, flow cytometry; reference of the scale not given here; response, % (test concentration not listed); 0.43% of 340,000 active; AID 504454;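 active means response above a set limit, near 3 SD of response in nonfluorescent compounds, cut at about 42% in these data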;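 further: stock transfer was 100 nL into about 11 µL; a reference agonist was the positive control; negative values mostly stem from fluorescent compounds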
Target sequence (P07550 whole entry, looked up): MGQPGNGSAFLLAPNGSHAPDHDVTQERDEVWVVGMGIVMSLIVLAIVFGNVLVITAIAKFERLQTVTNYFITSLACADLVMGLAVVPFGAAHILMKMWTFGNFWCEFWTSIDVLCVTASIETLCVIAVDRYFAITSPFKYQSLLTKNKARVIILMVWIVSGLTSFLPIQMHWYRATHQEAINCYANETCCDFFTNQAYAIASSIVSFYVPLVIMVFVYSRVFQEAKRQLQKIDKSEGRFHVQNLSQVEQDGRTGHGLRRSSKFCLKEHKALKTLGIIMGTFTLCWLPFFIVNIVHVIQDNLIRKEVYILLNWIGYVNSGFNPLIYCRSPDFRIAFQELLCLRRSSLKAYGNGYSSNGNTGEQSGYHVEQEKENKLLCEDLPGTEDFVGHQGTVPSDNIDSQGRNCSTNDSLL
UCH37 inh: blocks the human deubiquitinase UCH37; Q9Y5K5; purified proteasome/UCH37, Ub-AMC cleavage fluorescence; inhibition, % (test concentration not listed); 0.33% of 330,000 active; AID 588478;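 active means mean of two replicates above 20%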;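 further: 0% = compound-free wells with enzyme and 100% = wells lacking proteasome; stock transfer was 100 nL into about 20 µL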
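Signal – fluorescence, ex 355 nm, em 460 nm · System – Proteasome-bound UCH37 · Input – 0.15 nM proteasome as dispensed · Timing – 30 min preincubation with enzyme, 25 min cleavage at room temperature · Read-out basis – percent inhibition of cleavage signal versus uninhibited and no-proteasome wells · Medium – Tris-HCl pH 7.4 with ATP-MgCl2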
* hit, by the source's call; u = inconclusive; x = not tested or not shown; & = joins results of further samples.

mol	A1 inh	LANA-H2A inh	Vif TR-FRET	E coli growth	HNF4A DNA FP	Beta2AR agonist	UCH37 inh
FC(F)(F)C1CCCN(c2nsc3ccccc23)C1 (stereo not drawn)	-0.3	2.2	x	0.63	-2.2	5	3.5
Cn1c(SCC(=O)Nc2ccccc2)nnc1-c1ccc(NC(=O)CCc2ccccc2)cc1	-0.2	-2.1	0%	0.72	1.7	-8	0.6
Cc1ccc(-c2ccc(/C=C(\C#N)C(N)=S)o2)c([N+](=O)[O-])c1	x	x	x	0.71	1.4	19	6.9
Cc1cc(C)c2c(n1)sc1c(=O)[nH]c(SCc3ccccc3)nc12	-0.8	4.7	0%	0.73	-0.5	4	-10.0
CN1C(=O)N(C)C2(c3ccccc3)NNC(N)=NC12c1ccccc1 (stereo not drawn)	-0.4	-0.6	x	0.71	1.5	6	-1.3
CC(C)OCCCn1c(NN)nc2ccccc2c1=O	0.0	-0.6	-10%	0.66	1.9	-13	2.1
Cc1nc2ccccn2c1C(=O)NNS(=O)(=O)c1ccc(Cl)cc1	0.8	-1.1	11%	0.7	-3.9	-3	0.0
COc1ccccc1C1N(c2ccc(F)cc2)C(=O)C2CCCN21 (stereo not drawn)	-0.3	5.2	-2%	0.73	3.3	1	-1.6
Cc1ccc(C(=O)Cn2nnc(-c3cccs3)n2)cc1	0.1	-4.4	-75%	0.7	0.9	-2	0.1
CCOC(=O)C1C(=O)NC(SCC(=O)OC)=C(C#N)C1c1ccccc1OCC (stereo not drawn)	0.0	-3.2	0%	0.71	-1.1	8	1.9
CCOc1ccc(-n2c(N)c(-c3nc4ccccc4[nH]3)sc2=S)cc1	-0.6	7.0	25%	0.77	0.6	8	-7.0
O=C(COC(=O)/C=C/c1ccccc1[N+](=O)[O-])Nc1ccc(OCc2ccccc2)cc1	-2.4	6.5	x	0.73	0.8	6	-1.3
CCCc1cc(=O)[nH]c(SCC(=O)Nc2sc3c(c2C#N)CCC(C)C3)n1 (stereo not drawn)	0.4	1.6	4%	0.68	4.5	-4	5.1
Cc1ccc(N2C(S)=C(C#N)C(=O)NC23CCCCC3)cc1	-3.2	-0.8	2%	0.71	-0.3	-6	3.6
O=C1/C(=C/c2cccnc2)SC(=S)N1NS(=O)(=O)c1ccccc1	1.3	-1.8	-4%	0.68	-2.4	-6	7.2
CCOc1ccc(-c2cccc(NS(=O)(=O)c3cc([N+](=O)[O-])ccc3Cl)c2)nn1	0.3	x	-7%	0.68	-0.8	1	1.8
CCOc1ccccc1N1CCN(C(=S)NCc2ccc(Cl)cc2)CC1	0.6	1.8	-10%	0.7	1.9	-6	2.1
O=C(CSc1ncnc2ccccc12)c1ccc2c(c1)OCCO2	-0.6	-0.2	x	0.63	4.2	-1	2.4
CCc1ccc2oc(-c3cc(N)cc(C)c3O)nc2c1	-3.6	4.4	-1%	0.8	-2.4	17	0.0
COc1ccc2[nH]c3c(c2c1)CCN1C(=O)N([C@@H](C)C(=O)NCc2ccc(F)cc2)C(=O)[C@]31C	0.8	-3.8	x	0.75	4.4	2	-1.4
C[C@H](NC(=O)c1nc[nH]c1C(=O)NCc1ccc(CNC(=O)OC(C)(C)C)cc1)C(=O)OCc1ccccc1	u	1.1	x	x	1.7	14	0.1
N#Cc1ccccc1CN1C(=O)S/C(=C/c2cccn2-c2ccc(C(=O)O)cc2)C1=O	0.4	1.1	20µM*	0.77	-7.4	12	7.0
Nc1ccc2nc(N3CCOCC3)sc2c1	-3.9	-0.7	6%	0.66	5.4	7	2.8
O=C(c1ccc(F)cc1)N1CCN(Cc2ccccc2Br)CC1	-0.5	2.9	4%	0.73	-0.1	-3	0.7
COC(=O)CSc1ccc(-c2nc3ccc(C)cc3[nH]2)cn1	-4.5	0.9	5%	0.7	-3.1	21	-8.6
CC(NC(=S)NC1CCCCC1)c1ccc(C(C)(C)C)cc1 (stereo not drawn)	0.1	7.2	x	x	2.9	7	x
CCCCn1c(N)c(N(CC)C(=O)c2ccc(N(C)S(=O)(=O)c3ccc(C)cc3)cc2)c(=O)[nH]c1=O	0.5	0.9	1%	0.65	1.0	-2	-1.2
O=C(CCC(=O)N1CCN(S(=O)(=O)c2ccccc2)CC1)c1ccc(Br)cc1	-1.2	-0.2	-10%	0.72	-1.3	-2	3.0
O=C(CN(c1ccccn1)S(=O)(=O)c1ccccc1)Nc1ccccc1	-0.1	-3.4	-8%	0.7	-0.7	1	-8.7
O=C(O)C1C2C=CC(C2)C1C(=O)NCCCn1ccnc1 (stereo not drawn)	2.1	3.6	0%	0.68	-2.0	-3	4.3
CCc1ccccc1N(C1=NCCCS1)S(=O)(=O)c1ccc(C(C)(C)C)cc1	-0.9	x	4%	0.7	0.3	3	0.8
O=c1c2ccccc2nc(SCCN2CCOCC2)n1CCc1ccccc1	-0.1	5.1	x	0.65	1.7	-12	3.1
Cc1ccc2c(c1)c(-c1ccccc1)nc1nncn12	0.1	-2.6	4%	0.72	-1.7	-6	4.5
CC/C(O)=C(\C#N)c1nnc2n1CCCCC2	1.1	1.3	26%	0.69	2.1	1	2.9
O=C1CCN(Cc2ccccc2)C(=S)N1	x	x	-9%	0.68	-1.8	-6	0.9
NCc1cccc(-n2cccn2)c1	0.3	0.6	-4%	0.72	-2.0	-4	2.1
CN(CC(=O)NCCC1=CCCCC1)S(=O)(=O)c1ccc2c(c1)c(=O)n(C)c(=O)n2C	1.0	1.2	4%	0.76	3.5	-17	20
COc1ccc(CNC(=O)COC(=O)CN2C(=O)C(C)Oc3ccc(C)cc32)cc1 (stereo not drawn)	0.1	0.2	x	0.65	1.1	-4	0.9
O=C(CSc1nc2ccccc2c(=O)[nH]1)c1cccs1	0.0	-2.5	-15%	0.77	2.0	-9	-0.5
O=C(CN1CCCc2ccccc21)N1CCc2ccccc21	-0.4	1.1	-4%	0.68	-3.6	9	-0.9
CSc1nc(C)cc(OCCNS(=O)(=O)c2ccc(C)cc2)n1	0.2	-3.3	7%	0.69	-1.6	-8	0.9
CCN(CC)CC(=O)NN=C(c1ccccc1)c1ccccc1	0.7	2.9	-7%	0.68	2.9	-10	2.6
COCCOc1ccc(C(F)(F)F)cc1NC(=O)CN1C(=O)NC2(CCc3ccccc32)C1=O (stereo not drawn)	-1.1	-4.9	-3%	0.7	-3.6	-10	0.0
CCc1ccc(OCC(=O)Nc2ccc3c(c2)COC3=O)cc1	-0.3	-0.6	1%	0.71	-2.0	-2	2.5
COC(=O)c1c(NC(=O)Cc2cccs2)sc(C)c1C	-0.5	-0.4	11%	0.7	-2.2	-1	-0.2
CCOC(=O)c1c(-c2ccccc2)oc2ccc(OC(C)=O)cc12	1.1	-3.4	29%	0.67	1.1	-1	-134
COc1ccc(C2Nc3ccccc3C(=O)N2NS(C)(=O)=O)c(OC)c1 (stereo not drawn)	-0.2	5.0	2%	0.66	-0.5	-2	-366
COc1ccccc1-c1nc(C#N)c(NCc2ccc(F)cc2)o1	0.7	-2.2	-10%	0.68	-0.6	1	-19
COc1ccc2oc3ccc(OC)cc3c(=O)c2c1	-7.2	7.0	2%	0.7	-1.7	-1	-126
O=C(Cc1cccc(NC(=O)C2CCCN(C(=O)C3CCCCC3)C2)c1)Nc1cccc(C(=O)N2CCCC2)c1 (stereo not drawn)	0.2	4.1	x	0.79	-1.5	-12	1.4
O=C(c1ccccc1F)c1cc2c(cc1[N+](=O)[O-])OCCO2	-0.5	5.7	x	0.68	2.2	5	6.3
Cc1ccc2nc3sc(C(=O)N4CCOCC4)c(N)c3cc2c1	-1.4	1.3	20%	0.67	3.8	-8	3.3
COc1ccc(C(=O)NC(=S)NNC(=O)Cc2cccs2)cc1	0.5	3.0	4%	0.65	-0.2	3	2.1
COc1ccc(-c2csc(-c3cccnc3)n2)cc1C	-3.4	-0.3	x	x	2.2	-3	x
COc1ccc2oc(C(=O)Nc3nc4ccc(S(C)(=O)=O)cc4s3)c(C)c2c1	0.0	0.0	6%	0.65	28	12	-177
O=C(Nc1ccc(O)c2c(=O)cc(-c3ccccc3Cl)oc12)c1ccc(F)cc1	x	x	x	0.67	3.6	11	1.2
O=C(c1cc(F)ccc1F)C1CCCN(C(=O)CSc2ccccn2)C1 (stereo not drawn)	-0.2	-2.6	x	0.71	0.1	-1	4.5
CCOC(=O)c1sc(NC(=O)Cc2ccc(F)cc2)nc1C	0.3	-3.3	0%	0.71	-4.4	-2	2.5
CC(=O)N1CCN(S(=O)(=O)c2ccc(F)c(Cl)c2)CC1	-0.3	11	-4%	0.72	2.5	-6	1.0
Cc1nc2nc(COc3ccccc3)[nH]n2c(=O)c1Cc1ccccc1	-0.4	-1.3	71%	0.58	-1.3	2	5.8

(further entries)
mol	A1 inh	LANA-H2A inh	Vif TR-FRET	E coli growth	HNF4A DNA FP	Beta2AR agonist	UCH37 inh
COCCNC(=S)N1CCc2cc(OC)c(OC)cc2C1COc1cc(C)cc(C)c1 (stereo not drawn)	1.7	1.3	x	0.68	1.6	2	1.7
Cc1ccc(S(=O)(=O)N2[C@@H](c3ccccc3)C(C(=O)O)=CC[C@H]2c2cccc(Cl)c2)cc1	-1.0	-3.8	x	x	7.0	9	4.5
CN1Cc2c(N3CCOCC3)nc3sc(C(=O)c4ccc(Br)cc4)c(N)c3c2CC1(C)C	0.6	-3.2	-3%	x	6.2	20	x
COc1cccc(CNC2CCCCCCC2)c1OC	-0.5	0.6	x	0.69	-3.7	-11	1.2
CCOC(=O)c1oc2ccccc2c1NC(=O)c1ccccc1OC	-0.3	-6.3	14%	0.69	3.0	3	-14
COc1ccccc1-n1c(SCC(=O)Nc2cccc(C(=O)O)c2)nnc1-c1ccccc1C	0.6	-2.0	-10%	0.69	-3.2	5	0.7
CCN(CC)CCCNc1ncnc2ccccc12	0.4	6.4	0%	0.72	5.0	-10	2.9
CCN1CCN(Cc2ccc(NC(=O)c3cc(NC(=O)c4cc(C)on4)cc(OC)c3)cc2C(F)(F)F)CC1	0.6	0.6	-1%	x	4.9&0.2	-2	0.0
CSc1nncc(/C(C)=N\Nc2ccccc2C)n1	-0.7	-0.6	-5%	x	-2.2	48*	x
O=C(COC(=O)Cc1ccccc1F)Nc1ccccc1[N+](=O)[O-]	0.7	-0.9	x	0.69	-1.7	7	5.0
COc1ccc([N+](=O)[O-])cc1NCC(=O)c1ccc(C)cc1	-0.1	5.6	3%	0.67	9.0	8	6.6

Four entries from above in another layout:
COc1cccc(CNC2CCCCCCC2)c1OC
  A1 inh: -0.5; LANA-H2A inh: 0.6; Vif TR-FRET: x; E coli growth: 0.69; HNF4A DNA FP: -3.7; Beta2AR agonist: -11; UCH37 inh: 1.2
CCOC(=O)c1oc2ccccc2c1NC(=O)c1ccccc1OC
  A1 inh: -0.3; LANA-H2A inh: -6.3; Vif TR-FRET: 14%; E coli growth: 0.69; HNF4A DNA FP: 3.0; Beta2AR agonist: 3; UCH37 inh: -14
COc1ccccc1-n1c(SCC(=O)Nc2cccc(C(=O)O)c2)nnc1-c1ccccc1C
  A1 inh: 0.6; LANA-H2A inh: -2.0; Vif TR-FRET: -10%; E coli growth: 0.69; HNF4A DNA FP: -3.2; Beta2AR agonist: 5; UCH37 inh: 0.7
CCN(CC)CCCNc1ncnc2ccccc12
  A1 inh: 0.4; LANA-H2A inh: 6.4; Vif TR-FRET: 0%; E coli growth: 0.72; HNF4A DNA FP: 5.0; Beta2AR agonist: -10; UCH37 inh: 2.9
